From PubChem BioAssay
CSC inhib: blocks cancer stem cells; inhibition, % at 7.5 µM; cancer stem cell-like cells viability, luminescence; hit rate 1.1% among 300,000;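 active means mean at 75% or more and at least half the replicates too; tested in HMLE shEcad cells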;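 further: 0% = median of negative and 100% = median of positive control wells; the first replicate is given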
UUG fidelity: yeast start codon fidelity modulation; S. cerevisiae UUG-firefly luciferase reporter, luminescence/redox ratio; activity score, % at 18.7 µM; hit rate 0.13% among 350,000;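 active means replicate mean at a twofold rise or more, about +100% in these data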;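 further: firefly luciferase made from a UUG start codon reports start codon fidelity; reporter light over untreated wells divided by growth signal over untreated wells; some hits fall short of that in this replicate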
eIF4H FP inh: inhibitors of RNA binding by human eIF4H; Q15056; eIF4H fluorescence polarization binding assay; inhibition, % at 35 µM; hit rate 0.94% among 290,000;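 active means 50% or more with normal probe brightness, or confirmed in later tests; about a fifth of its hits are not listed in these tables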;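 further: calls also rest on retests at 20 µM and on dose response follow-up; 0% = protein and probe with vehicle and 100% = probe without protein; strong numbers were not always called active; many hits fall short of the cut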
MT1-MMP act inh: inhibitors of human MT1-MMP activation; AID 651647; HT1080 RFP-PRO-GFP cells, GFP/RFP ratio fluorescence, overnight; percent of plate control window, DMSO zero; GFP/RFP ratio change, % at 20 µM; hit rate 0.061% among 360,000; P50281;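 active means GFP/RFP ratio change of at least 30% with cell ATP level not reduced by more than half and red fluorescence within 50% of control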; further: strong numbers were not always called active
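Material – HT1080 RFP-PRO-GFP cells · Control set – DMSO wells and RFP-L50D-GFP cells · Incubation – overnight cell settling, then overnight compound exposure, 37 °C, 5% CO2 · Compound dosing – single-point 20 µM compound, 1% DMSO · Read-out – GFP/RFP fluorescence ratio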
PABP polyA inh: PABP-poly(A) binding inhibition; P11940; AID 2014; PABP-poly(A) RNA binding, fluorescence polarization; hit rate 1% among 290,000; inhibition, % at 35 µM;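 active means 50% or more with normal probe brightness, or confirmed in later tests; about a fifth of its hits are not listed in these tables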;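 further: calls also rest on retests at 20 µM and on dose response follow-up; controls were probe without protein and protein plus probe with vehicle; some compounds called inactive have numbers as strong as hits; many hits fall short of the cut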
Target sequence (P11940 whole entry, looked up): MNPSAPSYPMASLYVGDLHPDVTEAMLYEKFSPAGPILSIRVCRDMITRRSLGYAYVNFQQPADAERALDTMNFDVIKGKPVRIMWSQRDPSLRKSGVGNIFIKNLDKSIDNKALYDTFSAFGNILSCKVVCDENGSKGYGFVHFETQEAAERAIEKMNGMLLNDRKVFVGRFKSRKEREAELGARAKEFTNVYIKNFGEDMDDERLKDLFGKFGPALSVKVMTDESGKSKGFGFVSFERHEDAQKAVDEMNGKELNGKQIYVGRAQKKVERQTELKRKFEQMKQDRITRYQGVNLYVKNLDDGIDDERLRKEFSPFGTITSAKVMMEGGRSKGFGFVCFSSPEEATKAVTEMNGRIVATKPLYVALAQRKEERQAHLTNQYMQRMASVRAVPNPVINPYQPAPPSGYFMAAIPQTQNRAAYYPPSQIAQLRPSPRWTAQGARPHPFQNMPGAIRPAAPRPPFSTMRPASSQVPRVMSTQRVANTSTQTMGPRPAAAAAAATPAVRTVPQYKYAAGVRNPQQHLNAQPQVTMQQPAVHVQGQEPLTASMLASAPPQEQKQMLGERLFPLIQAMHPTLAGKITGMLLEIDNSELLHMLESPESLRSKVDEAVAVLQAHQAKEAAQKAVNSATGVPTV
Env fusion inh: HIV envelope-mediated fusion inhibition; HeLa-JRFL Env/CEM21 cell fusion, luciferase; inhibition, % at 12.3 µM; hit rate 1.1% among 360,000; AID 651610;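 active means mean replicate inhibition score of at least 50 and every replicate individually at or above 50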;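 further: 0% = plate neutral controls and 100% = maraviroc near 300 nM; one replicate is shown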
Rce1 inh: blocks yeast Ras-converting enzyme; Q03530; yeast membranes, quenched prenylated peptide cleavage fluorescence; calls only; hit rate 0.27% among 290,000;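 active means fall in fluorescence gain of 50% or more versus controls, with final raw signal at or below 3038400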;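 further: plate controls were neutral control wells for no effect and wells lacking membranes for full effect; tested at 10 µM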
Target sequence (Q03530 whole entry, looked up): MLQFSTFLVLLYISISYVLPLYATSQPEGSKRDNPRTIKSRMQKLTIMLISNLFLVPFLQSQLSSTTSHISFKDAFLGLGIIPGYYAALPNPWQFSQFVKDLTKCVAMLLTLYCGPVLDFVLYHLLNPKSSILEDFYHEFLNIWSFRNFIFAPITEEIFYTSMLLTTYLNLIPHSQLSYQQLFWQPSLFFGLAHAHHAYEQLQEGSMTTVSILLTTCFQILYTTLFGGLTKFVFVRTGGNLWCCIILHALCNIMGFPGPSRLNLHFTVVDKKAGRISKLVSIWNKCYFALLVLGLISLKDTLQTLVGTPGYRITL
MT1-MMP act inh RFP: recorded beside MT1-MMP act inh, whose call it bears; RFP signal change, %; measured here: RFP expression control read;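 0 = vehicle wells; hits needed this value within 50% of zero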
An asterisk follows results filed as active; i = inactive; . = no result given. An excerpt; rates above refer to the full screens.

SMILES	CSC inhib	UUG fidelity	eIF4H FP inh	MT1-MMP act inh	MT1-MMP act inh RFP	PABP polyA inh	Env fusion inh	Rce1 inh
COCCC(=O)N1CCC(Oc2ccc(C(=O)NC(C)CCn3cccn3)cc2)CC1 (stereo not drawn)	0	-13	-4	-9	-1	-1	6	i
O=C(c1ccc(-c2ccc([N+](=O)[O-])cc2)o1)N1CCCCC1	11	-33	-4	5	0	1	-42	i
CCOC(=O)C1CCCN(C(=O)/C=C/c2cc(OC)c(OC)c(OC)c2)C1 (stereo not drawn)	-13	.	3	4	5	3	-7	i
COc1cc(OC)c(C(=O)OC(C)C(=O)Nc2cccc(C(F)(F)F)c2)cc1OC (stereo not drawn)	13	-3	0	-1	-7	48	22	i
C/C(=N\NS(=O)(=O)c1ccc(Br)cc1)c1ccc2c(c1)OCO2	-2	-21	-1	-4	2	-2	11	i
O=C(CSc1ncnc2c1nnn2Cc1ccccc1)NC1CCCCC1	9	-12	-9	2	-1	-6	4	i
COc1cc(/C=N/NC(=O)c2cccnc2)ccc1OCC(=O)Nc1ccccc1Cl	1	-1	-35	-2	-4	-3	-35	i
C=CCn1c(SCC(=O)c2[nH]c(C)c(C(=O)OCC)c2C)nc2scc(-c3ccc(OC)c(OC)c3)c2c1=O	93*	.	4	-31	-24	1	-23	i
Cc1nn(-c2nccs2)c2c1C(=O)CC(C)(C)C2Br (stereo not drawn)	.	-14	.	-7	-7	.	30	.
COc1ccc(N=Nc2cc(-c3ccccc3)ccc2O)cc1	19	-2	7	2	1	4	-8	i
Cc1ccc(S(=O)(=O)N2CCN(Cc3ccsc3)CC2)cc1	-4	.	0	-2	1	-7	12	i
CCOC12NC(=O)CC(=O)N1C(c1ccccc1)=CS2 (stereo not drawn)	-3	25	-5	-2	1	4	-1	i
O=C(c1ccc(NS(=O)(=O)c2ccc3[nH]c(=O)[nH]c3c2)cc1)N1CCN(c2ccccc2O)CC1	-4	5	.	-4	1	.	-8	i
COCCNC(=O)c1nn2c(C(F)(F)F)cc(-c3ccccc3)nc2c1Br	.	-9	.	-2	2	.	8	.
COC(=O)/C(=C/Nc1cccc2ccccc12)[N+](=O)[O-]	-3	.	6	-1	1	12	.	.
O=C(NCc1ccc2c(c1)OCO2)Nc1ccc(Cl)cc1	1	-13	-9	-1	-3	-4	0	i
O=C(Nc1ccccn1)C1(c2ccccc2)CCCC1	4	-16	-8	-8	-9	-4	.	i
CCOc1ccc(CC(=O)NCc2ccc3c(c2)cc(C)n3C)cc1	-2	-9	46	18	27	12	10	i
C=C(C)COc1ccc(-c2nc(N)ncc2Oc2ccccc2OC)c(O)c1	48	-5	9	-20	-16	0	.	.
CCCCn1c(SCC(=O)NC2CC2)nnc1-c1ccncc1	-9	.	-1	2	3	6	-1	i
N#Cc1c(N)sc2c1CCCCCC2	-7	.	0	1	4	5	4	i
Cc1ccccc1CN1C(=O)C2(OCCCO2)c2ccccc21	.	-11	-2	6	10	2	.	i
COc1ccc(NC2CCCN(C(=O)CCc3ccncc3)C2)cc1OC (stereo not drawn)	.	-15	1	7	6	3	0	i
O=C(Nc1cccc(C(F)(F)F)c1)c1cccnc1N1CCN(c2ccccc2)CC1	9	-8	-6	11	-1	11	34	i
Cc1ccccc1C1c2[nH]c3ccccc3c2C[C@H]2C(=O)N(c3ccccc3C(=O)NCCN3CCOCC3)C(=O)N12 (stereo partly drawn)	3	-13	1	-21	2	2	.	i
Cc1cc(C)c(NC(=S)N2CCC(N(C)CC3CCCO3)CC2)c(C)c1 (stereo not drawn)	36	-13	0	1	-1	-1	-14	i
CC(OC(=O)c1n[nH]c2ccccc12)C(=O)NC1CCCCC1C (stereo not drawn)	-1	-19	.	3	-10	.	0	.
COc1cccc(NC(=O)c2cnsn2)c1	-8	-22	6	5	-1	4	.	i
CCc1ccc(NC(=O)c2cnccn2)cc1	15	-37	-4	2	0	-4	-12	i
COc1ccc(C(=O)NC(=S)Nc2ccc(CN3CCOCC3)cc2)cc1OC	-9	11	3	-2	1	-3	-5	i
CCOc1ccc(CNC(=O)Cn2c(=O)c3cccn3c3ccccc32)cc1	0	-6	0	1	-3	34	-2	i
CC12CCC(C(=O)Nc3cc(Cl)ccc3Cl)(C(Br)C1=O)C2(C)C (stereo not drawn)	3	-5	5	2	-2	2	34	i
COC(=O)c1cccc(NC(=S)Nc2ccccc2Cl)c1	-8	-24	-1	3	-3	13	-2	i
COc1cccc(-c2coc3cc4oc(=O)c(CCC(=O)O)c(C)c4cc23)c1	-4	2	-4	-1	-1	26	17	i
COc1cccc(CN2CCN(Cc3ccc4c(NC(C)=O)cccc4n3)CC2CCO)c1 (stereo not drawn)	-13	-7	6	-4	-2	5	-7	i
COCc1n[nH]c(=S)n1-c1ccccc1	-15	-15	1	-3	4	-2	-113	i

In the list so far, two contain a nitro group on carbon:
SMILES	CSC inhib	UUG fidelity	eIF4H FP inh	MT1-MMP act inh	MT1-MMP act inh RFP	PABP polyA inh	Env fusion inh	Rce1 inh
O=C(c1ccc(-c2ccc([N+](=O)[O-])cc2)o1)N1CCCCC1	11	-33	-4	5	0	1	-42	i
COC(=O)/C(=C/Nc1cccc2ccccc12)[N+](=O)[O-]	-3	.	6	-1	1	12	.	.

(list continues)
SMILES	CSC inhib	UUG fidelity	eIF4H FP inh	MT1-MMP act inh	MT1-MMP act inh RFP	PABP polyA inh	Env fusion inh	Rce1 inh
CCn1c(=O)c(C(=O)CN2CCN(S(=O)(=O)c3ccc(C)cc3C)CC2)c(N)n(Cc2ccccc2)c1=O	22	5	-11	5	-9	-8	.	i
Cc1cc(S(=O)(=O)n2ccnc2)c(Cl)cc1Cl	-17	-6	-4	-3	-3	-3	0	i
CC(C)Oc1ccc(S(=O)(=O)N2CCOCC2)cc1NC(=O)c1ccc(N2CCCC2=O)cc1	4	12	-6	0	-9	-7	9	i
O=C(NCCCN1CCCC1=O)c1cccc(Oc2ccccc2)c1	-10	.	12	-2	-1	4	-1	i
CN1C(=O)/C(=C/c2ccc(OCc3ccc(F)cc3)cc2)N(C)C1=S	-1	-4	-10	-2	1	6	7	i
CCOc1ccc(C(C)NC(=O)c2cccs2)cc1OCC (stereo not drawn)	-8	-1	.	6	2	.	-25	i
COc1ccc(NC(=O)NC(C)c2ccccc2)cc1 (stereo not drawn)	-18	3	-7	0	0	-4	11	i
CCN(c1ccccc1)c1cc(C)nc2nc(C)nn12	-4	-18	-8	0	4	-11	-29	i
CCC(C)NC(=O)CS(=O)Cc1nc(-c2cccc(C)c2)oc1C (stereo not drawn)	-18	21	8	-7	-3	-11	-32	i
O=C(NCCCc1ccccc1)C1CC(=O)N(c2ccc3c(c2)OCCO3)C1 (stereo not drawn)	-10	-1	0	3	9	-5	18	i
CCCn1nc(NC(=O)c2ccco2)c2cc3ccccc3nc21	11	.	-5	1	2	-7	-90	i
Cc1cc(C(=O)Nc2ncc(C)s2)c2ccccc2n1	4	.	3	2	-3	4	2	i

Random excerpt: 2 compounds from above
SMILES	CSC inhib	UUG fidelity	eIF4H FP inh	MT1-MMP act inh	MT1-MMP act inh RFP	PABP polyA inh	Env fusion inh	Rce1 inh
Cc1cc(C(=O)Nc2ncc(C)s2)c2ccccc2n1	4	.	3	2	-3	4	2	i
Cc1cc(S(=O)(=O)n2ccnc2)c(Cl)cc1Cl	-17	-6	-4	-3	-3	-3	0	i

Further records
SMILES	CSC inhib	UUG fidelity	eIF4H FP inh	MT1-MMP act inh	MT1-MMP act inh RFP	PABP polyA inh	Env fusion inh	Rce1 inh
CCCCCc1ccc(OCCCC[n+]2cccc(C)c2)c(CCCCC)c1	109*	.	-8	-32	-35	10	56*	.
Cc1ccc(CNC(=O)C(=O)NCCC2CCCCN2S(=O)(=O)c2ccc(C)cc2)cc1 (stereo not drawn)	-1	15	.	4	-10	.	.	i
CCN1C(=O)[C@@H]2Cc3c([nH]c4ccccc34)C(c3cc(OC)c(OC)c(OC)c3)N2C1=S (stereo partly drawn)	54	-11	-14	-84	-7	8	-7	i
CC(C)NC(=O)C1(C)CCN1C(=O)c1ccc2c(c1)OCO2 (stereo not drawn)	.	-19	.	1	1	.	-10	.
N#Cc1cc(Oc2ccccc2)c(-n2nnc3ccccc32)cc1C#N	-10	-2	-4	1	0	-3	-100	i
CCc1nc(SCC(=O)OC(C)C)c2ccccc2n1	14	.	4	2	2	10	2	i
COc1ccccc1-n1c(C)cc(SC)c(C(C)=O)c1=S	10	-21	0	4	3	2	.	i
O=C(/C=C/c1cccc(O)c1)c1ccc(N2CCOCC2)cc1	.	-20	-1	-1	-6	-4	0	i
COc1c(S(=O)(=O)Nc2cccnc2)ccc(Cl)c1Cl	-4	.	4	-5	-6	-9	0	i
COc1ccc(C(C)C)cc1-c1cccc2nncn12	.	-20	.	0	3	.	3	.
Cc1cccc(-c2nnc(NC(=O)c3ccco3)s2)c1	-8	-20	9	1	0	-2	-71	i
CC1(O)C(c2ccccc2)=Nc2ccccc21 (stereo not drawn)	.	-17	.	-1	2	.	-86	.

5 successive records from above, quoted:
SMILES	CSC inhib	UUG fidelity	eIF4H FP inh	MT1-MMP act inh	MT1-MMP act inh RFP	PABP polyA inh	Env fusion inh	Rce1 inh
CCCCCc1ccc(OCCCC[n+]2cccc(C)c2)c(CCCCC)c1	109*	.	-8	-32	-35	10	56*	.
Cc1ccc(CNC(=O)C(=O)NCCC2CCCCN2S(=O)(=O)c2ccc(C)cc2)cc1 (stereo not drawn)	-1	15	.	4	-10	.	.	i
CCN1C(=O)[C@@H]2Cc3c([nH]c4ccccc34)C(c3cc(OC)c(OC)c(OC)c3)N2C1=S (stereo partly drawn)	54	-11	-14	-84	-7	8	-7	i
CC(C)NC(=O)C1(C)CCN1C(=O)c1ccc2c(c1)OCO2 (stereo not drawn)	.	-19	.	1	1	.	-10	.
N#Cc1cc(Oc2ccccc2)c(-n2nnc3ccccc32)cc1C#N	-10	-2	-4	1	0	-3	-100	i

(next part)
SMILES	CSC inhib	UUG fidelity	eIF4H FP inh	MT1-MMP act inh	MT1-MMP act inh RFP	PABP polyA inh	Env fusion inh	Rce1 inh
COC(=O)c1ccc(C(=O)OC)c(NC(=O)CN(c2ccccc2)S(=O)(=O)N(C)C)c1	-4	.	-6	3	2	-11	13	i
COc1ccc2oc(C(=O)OCC(=O)N(C)Cc3ccccc3)c(C)c2c1	.	11	.	0	0	.	-6	i
Cc1ccc(C)n1-c1ccc(C(=O)NCc2cccnc2)cc1	0	.	5	0	4	2	.	i
CCOC(=O)c1c(C)n(C)c2ccc(O)c(CN(C)C)c12	-12	11	4	9	-7	0	.	.
CCOn1c(=O)c(-c2ccccc2)[n+]([O-])c2ccccc21	-5	-10	4	2	0	-12	-2	i
CCN(CC)c1ccc(NC(=O)c2ccccc2)cc1S(=O)(=O)Nc1ccccc1OC	20	-8	1	-3	-9	2	12	i
COc1ccc(CC(NC(C)=O)C(=O)NC2CCN(S(=O)(=O)c3ccc(NC(C)=O)cc3)CC2)cc1 (stereo not drawn)	11	-21	-14	1	1	0	0	.
CCOC(=O)CSc1nnc(-c2ccoc2C)n1-c1ccc(OCC)cc1	-23	-21	0	-3	-3	-2	.	i
COc1ccccc1/C=N/NC(=O)c1ccc(NC(=O)c2cccc([N+](=O)[O-])c2)cc1	1	.	2	.	.	47	.	i
